Tg IFNy HTS – inhibitors of Toxoplasma gondii growth with IFN-gamma; Toxoplasma gondii growth in IFN-gamma-treated host cells; stronger effect = lower value; reference of the scale not given here; activity change, negative = inhibition, %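 (about 20 µM by stock and volumes)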; hit rate 3.8% among 69,000;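 active means below -70%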;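 further: host cells are HeLa cells infected with Toxoplasma gondii; parasite growth read as luciferase light; one replicate is shown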
* hit, by the source's call; i = inactive; & = joins results of further samples. An excerpt; the hit share may differ from the screen's.

compound,Tg IFNy HTS
O=C(C[C@@H]1CC[C@H](NC(=O)CC2CC2)[C@@H](CO)O1)NCC(F)(F)F,-5
COc1ccc2c3c(n(C)c2c1)[C@H](CO)N(CC1CC1)CC31CN(C(=O)CC2CC2)C1,87
CCOC(=O)c1cn(C(C)c2cnn(C)c2)cc(Oc2ccccc2)c1=O (stereo not given),2
COCCN1C(=O)CCc2cc(NC(=O)COc3ccccc3)ccc21,75
COC1CCCC(C(=O)N2CCC3(CC2)C(=O)Nc2ccc(-c4ccc(C(N)=O)cc4)cc23)C1 (stereo not given),33
O=c1[nH]cnc2c1sc1nc(-c3ccccc3)cc(-c3ccccc3)c12,-9
CC(C)Oc1ccc(CNC(=O)CN2C(=O)CCc3cc(S(=O)(=O)N4CCCCC4)ccc32)cc1,-17
N#Cc1cccc(NC2COC3(CCN(c4ncccn4)C3)C2)n1 (stereo not given),-3
CCOCC(=O)N1CCO[C@H]2[C@H]1CC[C@H]2OCCN1CCCC1,0
Cc1cc(=O)oc2c(CN(C)C)c(O)ccc12,-2
COc1ccc(-c2nc(Cn3ccn4nc(-c5ccc6c(c5)OCO6)cc4c3=O)c(C)o2)c(OC)c1,56
CC(C)NC(=O)N1C[C@H]2[C@@H](C(=O)NCc3ccccc3)CCS(=O)(=O)[C@H]2C1,3
CCOc1ccccc1N(Cc1nc(-c2ccc(OC)cc2)oc1C)S(=O)(=O)c1cccs1,-46
Cc1cccc(-c2nc(C)c(CCNS(=O)(=O)c3ccccc3)s2)c1,i
COc1ccc(S(=O)(=O)CCC(=O)O)cc1F,1
Clc1ccc(C(c2nnnn2C2CCCC2)N(Cc2ccco2)CC2CCCO2)cc1 (stereo not given),87
Cc1nn(C)cc1C(C)n1ccnc1-c1nn(C)c2cccc(Cl)c12 (stereo not given),-5
Cc1ccc(-c2csc(NC(=O)c3ccccc3)n2)c(C)c1,49
COc1cccc(CNC(=O)C[C@H]2CC[C@H]3[C@H](COc4ccc(NC(=O)c5cccs5)cc4C(=O)N3C)O2)c1,-27
COc1cc(C(=O)Nc2cc(-c3cccs3)n[nH]c2=O)cc(OC)c1OC,-47
CC(=O)Nc1ccc(NC(=O)CSc2ncc(-c3ccccc3)nn2)cc1,51
Nc1ncccc1CN1CCCC1c1nc(-c2ccccc2)no1 (stereo not given),6
O=C1NCCC12CCCN(Cc1ccncc1)CC2 (stereo not given),-28
O=C(O)C1(c2ccc(Br)cc2)CCCC1,4
CC(C)Cc1cc(C(=O)NCc2cnn3ccccc23)n(C)n1,-34
O=c1[nH]ccc2c(S(=O)(=O)N3CCCNCC3)cccc12,7&33
CC(C)OCc1ccc(C(=O)N2CCN(C(c3ccccc3)c3nccn3C)CC2)o1 (stereo not given),-1
CO[C@H]1CN(C)C(=O)c2ccc(NS(C)(=O)=O)cc2OC[C@@H](C)N(CC2CC2)C[C@H]1C,-26
CCOC(=O)N1CCN(C(=O)c2ccc(N3CCC(NCCc4cccc(Cl)c4)CC3)cc2)CC1,-12
CCOC(=O)c1nc(Nc2ccc(C(C)C)cc2)c2ccccc2n1,-41

As a working copy, part of the list above:
compound,Tg IFNy HTS
O=C(C[C@@H]1CC[C@H](NC(=O)CC2CC2)[C@@H](CO)O1)NCC(F)(F)F,-5
COc1ccc2c3c(n(C)c2c1)[C@H](CO)N(CC1CC1)CC31CN(C(=O)CC2CC2)C1,87

Next section
compound,Tg IFNy HTS
O=C(Cc1cc(Br)sc1Br)Nc1cccc(C(F)(F)F)c1,-65
O=C(Nc1ccccc1CCO)c1cccc(CN2CC[C@H](O)C2)c1,4
Cc1ccc(F)c(NC(=O)c2c(O)c3cccnc3n(-c3ccc(F)cc3)c2=O)c1,58
C=CCn1c(=O)c(C(=O)NCc2ccccc2)c(O)c2ccccc21,442
Cc1ccc(NC(=O)N2CCN(Cc3nc(-c4ccc(C)cc4)oc3C)CC2)cc1,1
COc1ccc(CCn2c(CN)n[nH]c2=O)cc1,19
Cc1ccc(S(=O)(=O)N2CCC3(CC2)NCCN=C3NCc2ccccc2Cl)cc1C,-18
CC(C)C(=O)Nc1ccc2c(c1)C(=O)N(C)[C@H]1CC[C@H](CC(=O)NCCc3ccccc3)O[C@H]1CO2,-10
CCn1c(=N)c(C(=O)NC)cc2c(=O)n3cccc(C)c3nc21,-49
CCOc1ccc(CN2CCN(c3nc(C)ccc3C(N)=O)CC2)cn1,-2
COCCN(CCOC)C(=O)c1cc(-c2cnc(Nc3ccccc3)nc2)cn1C,16
CC(C)c1ccc2c(c1)C(N1CCN(CCO)CC1)Cc1ccc(F)cc1S2 (stereo not given),-66
Cn1nccc1C(=O)N1CCC(c2n[nH]c(=O)n2Cc2ccccc2)CC1,77
CCN1CCC2(CC1)CC(NC(=O)c1cnc[nH]1)c1ccccc1O2 (stereo not given),-17
COc1ccc(C2CC(c3c(O)cc(C)oc3=O)=NCCS2)c(OC)c1 (stereo not given),88
Cc1nc(-c2ccccc2)sc1CCNS(=O)(=O)c1ccc(Cl)s1,i
COc1ccc(C(CC(=O)O)NC(=O)c2ccc(F)cc2)cc1OC (stereo not given),-16
CC(=O)N1CCC2(CC1)CC(COCC1CC1)N(Cc1cccnc1)C2 (stereo not given),-2
O=C(c1cc(-c2cccnc2)n[nH]1)N1CCN(C(=O)c2cc3ccccc3[nH]2)CC1,-3
CC(C)CN1Cc2c(C(=O)NCc3cccnc3)ncn2-c2ccccc2S1(=O)=O,-31
COCCN1CCc2nc(SCc3nc(-c4cccc(C)c4)oc3C)[nH]c(=O)c2C1,-3
O=C(Nc1ccc(F)cc1F)N1CCC2(CC1)Nc1cc(F)ccc1-n1cccc12,278
CCc1cn[nH]c1C1CCN(C(=O)C2(S(=O)(=O)c3ccccc3)CC2)CC1,-22
O=C(NCc1ccccc1)c1cncc(NS(=O)(=O)c2ccccc2)c1,16
CCOc1ccccc1NC(=O)Cn1c(=O)cc(C(=O)N2CCCCC2)c2ccccc21,-34
CC1(C)c2cc(O)ccc2OC1N1CCOCC1 (stereo not given),57
Cn1c(=O)c(-c2nc(-c3cccc(F)c3)no2)c(O)c2ccc(F)cc21,20
O=C(/C=C/c1ccccc1)/C=C/c1ccccc1,-98*
C[C@@H]1CN([C@@H](C)CO)C(=O)CCCn2nncc2CO[C@H]1CN(C)C(=O)Nc1ccccc1C(F)(F)F,39
CC(C)NC(=O)C1CC(=O)N(CCc2c[nH]c3ccc(F)cc23)C1 (stereo not given),155

Filtered by structure, those above containing an NH in an aromatic ring (10)
compound,Tg IFNy HTS
O=c1[nH]cnc2c1sc1nc(-c3ccccc3)cc(-c3ccccc3)c12,-9
COc1cc(C(=O)Nc2cc(-c3cccs3)n[nH]c2=O)cc(OC)c1OC,-47
O=c1[nH]ccc2c(S(=O)(=O)N3CCCNCC3)cccc12,7&33
COc1ccc(CCn2c(CN)n[nH]c2=O)cc1,19
Cn1nccc1C(=O)N1CCC(c2n[nH]c(=O)n2Cc2ccccc2)CC1,77
CCN1CCC2(CC1)CC(NC(=O)c1cnc[nH]1)c1ccccc1O2 (stereo not given),-17
O=C(c1cc(-c2cccnc2)n[nH]1)N1CCN(C(=O)c2cc3ccccc3[nH]2)CC1,-3
COCCN1CCc2nc(SCc3nc(-c4cccc(C)c4)oc3C)[nH]c(=O)c2C1,-3
CCc1cn[nH]c1C1CCN(C(=O)C2(S(=O)(=O)c3ccccc3)CC2)CC1,-22
CC(C)NC(=O)C1CC(=O)N(CCc2c[nH]c3ccc(F)cc23)C1 (stereo not given),155

Next records follow:
compound,Tg IFNy HTS
O=C(Cn1nc(-c2cccc(F)c2)n(-c2ccncc2)c1=O)N1CCCC1,-12
Cc1noc(C)c1NC(=O)Nc1ccc2c(c1)C(=O)N([C@@H](C)CO)C[C@H](C)[C@H](CN(C)Cc1ccc3c(c1)OCO3)OCCCC[C@H](C)O2,199
COc1ccc(S(=O)(=O)Nc2ccc3c(c2)C(=O)N([C@H](C)CO)C[C@H](C)[C@@H](CN(C)S(=O)(=O)c2ccc(Cl)cc2)OCCCC[C@@H](C)O3)cc1,4
CN(CC1COCCO1)c1nc(-c2cccnc2)nc2c1cnn2C (stereo not given),-12
CC(C)(C(=O)NCC1CCN(Cc2cnc[nH]2)C1)c1ccccc1 (stereo not given),0
COc1ccc(S(=O)(=O)N2CC3CCC2C3Oc2cccnc2)cc1 (stereo not given),-4
CC(=O)N[C@H]1CCN(C(=O)c2ccc(NC(=O)C3CCC3)cc2)C1,10
CN1CCOC2(CCCN(C(=O)Cc3ccccc3)C2)C1 (stereo not given),-21
CC(=O)N[C@@H]1C[C@H](CC(C)C)O[C@H](c2c(C)n(C)n(-c3ccccc3)c2=O)C1,-1
COc1cc(NC(=S)NC(=O)c2cccs2)ccc1NC(=O)C(C)C,51
Cc1c(C(=O)N(C)Cc2noc(CC(C)C)n2)cnn1-c1ccccn1,90
Cn1c2ccccc2c2cc(C(=O)O)ccc21,-5
O=C(Cc1cccnc1)NCCCN1CCCc2ccccc21,2
O=C(NCCN1CCCC1)C1CCN(Cc2cc3ccccc3n2Cc2ccccc2Cl)CC1,-50
CCC(C)N(Cc1cccnc1)C(=O)c1cncc(C)c1 (stereo not given),-1
COC(=O)c1ccccc1NS(=O)(=O)c1cc2c3c(c1)CCN3C(=O)CC2,117
Nc1cc(N)nc(SCCC(=O)O)n1,-2
CN(Cc1ccccn1)C1COC2(CCN(Cc3cccnc3)CC2)C1 (stereo not given),-3
CC(=O)N1[C@H](CO)[C@H](c2ccccc2)[C@H]1CN(CC(C)C)C(=O)c1ccccn1,-48
N#C[C@H]1[C@H](c2ccccc2)[C@@H](CO)N1C(=O)c1ccc2c(c1)OCO2,-1
O=C(C1CCC2(CCN(Cc3ccc(F)cc3)CC2)O1)N1CCCO1 (stereo not given),2
O=C(NCCc1csc(-c2ccc(Cl)cc2)n1)c1ccccc1C(F)(F)F,63
COc1cc(NCCCc2nnc3ccccn23)ncn1,-2
COc1ccc(-c2ccc(C(=O)N3CCC(Oc4ccc(F)cc4)CC3)c(=O)[nH]2)cc1,-68
O=C(c1ccoc1)N1CCCC2(C1)Nc1cccnc1NC2=NC1CCCC1 (stereo not given),26
CC(C)CN1C(=O)N(Cc2ccccn2)C(=O)C12CCN(Cc1cccnc1)CC2,21
O=C(NCc1nnc(-c2ccncc2)o1)c1ccccc1,-7
Cc1ccccc1-n1nc(C)c(CN(CCCN2CCOCC2)Cc2cccnc2)c1C,-53
CCC(CC)n1ncc(C)c1NC(=O)c1cccnc1OC,-59
CCOc1ccc(NC2OC(C)C(O)C(O)C2O)c([N+](=O)[O-])c1 (stereo not given),14
CCn1c(=O)c(C(=O)Nc2nc(C)cc(C)n2)c(O)c2ccccc21,35
COc1ccc(S(=O)(=O)NC(C)Cc2c[nH]c3c(C)cccc23)cc1NC(C)=O (stereo not given),8
CC(C)C1CN(C(=O)c2ccccc2F)CCC(=O)N1Cc1ccc(F)cc1 (stereo not given),0
CCOC1COC2(CCN(S(C)(=O)=O)CC2)C1 (stereo not given),89
CS(=O)(=O)N1CC(=O)N2[C@@H](CO)[C@@H](c3ccc(C#CCC4CCCC4)cc3)[C@@H]2C1,-9
Cc1sc2ncn(CCC(=O)NCCn3nnn(-c4cccs4)c3=O)c(=O)c2c1C,-5
O=c1c(Cc2ccccc2OCc2ccccc2)coc2ccccc12,-6
O=C(CN1CCC(c2ccccc2)CC1)Nc1nnc(C2CCCCC2)s1,3
CC(=O)c1ccc(NC(=O)CN2CCN(c3ncccn3)CC2)cc1,9
O=C(c1cnc(CN2CCCC2)s1)N1CC[C@@H](c2ccc(F)cc2)[C@H](O)C1,2
COCCN1CCc2ncnc(N3CCOCC3)c2CC1,-39
Cc1cccc(NC(=O)CN2C(=O)CCc3cc(S(=O)(=O)N4CCCCC4)ccc32)c1,1
CN1C(=O)c2cc(C(=O)N3CCN(c4ncccn4)CC3)nn2CC1(C)C(=O)NC1CCCCC1 (stereo not given),-28
CC(=O)NCC(=O)N1CCc2nc(-c3cnn(C)c3)nc(NC3CC3)c2C1,-58
COc1ccccc1CNC(=O)C[C@H]1CC[C@@H]2[C@H](COc3ccc(NC(C)=O)cc3C(=O)N2C)O1,18
CC(=O)NCCC1CCCCN1C(=O)NCc1ccccc1F (stereo not given),-1
O=c1c2ccccc2cnn1Cc1nc2c3ccccc3ncn2n1,19
CC(C)N(Cc1nccn1C)C(=O)CC1C(=O)NCCN1Cc1ccccc1C(F)(F)F (stereo not given),-17
O=C(c1ccc(Cl)cc1)N1CCC2(CC1)Nc1cc(F)ccc1-n1cccc12,23
CN(C)C1CCN(C(=O)c2ccco2)C(C(=O)O)C1 (stereo not given),16
CN(C)CC(=O)N1CCC(n2cc(C(=O)O)cn2)C1 (stereo not given),1
CN(Cc1nc2ccccc2[nH]1)Cc1cccc2ncccc12,0
COc1ccc(NC(=O)c2cncc(NS(=O)(=O)c3ccc(C)cc3C)c2)cc1OC,61
Cc1[nH]cnc1-c1nccn1Cc1ccc2c(c1)n(C)c(=O)n2C,-1
CCN(CC)CCCCC1CCN(CC(=O)N2c3ccccc3C(=O)Nc3cccnc32)CC1,12&18
C=CCO[C@H]1CCN(C2CCOCC2)[C@H]1Cc1cccnc1,-44
Cn1cc(CN2CC[C@H]3[C@@H]2CCN3C(=O)c2ccsc2)cn1,7

Source: PubChem BioAssay (Broad Institute)
